# Mtb MbtI inh: inhibitors of Mycobacterium tuberculosis siderophore enzyme MbtI | inhibition, %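 (about 17 µg/mL by stock and volumes)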 | 100,000 compounds, 0.89% hits | P9WFX0 | purified MbtI enzyme, fluorescence intensity read-out | AID 493033;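 active means above 50% in both replicates, above 80% if mildly self-fluorescent; inactive means the rest, strongly fluorescent compounds included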;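 further: 0% = mean of negative and 100% = mean of positive controls; one replicate is shown; some compounds called inactive have numbers as strong as hits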
# Target sequence (P9WFX0 whole entry, looked up): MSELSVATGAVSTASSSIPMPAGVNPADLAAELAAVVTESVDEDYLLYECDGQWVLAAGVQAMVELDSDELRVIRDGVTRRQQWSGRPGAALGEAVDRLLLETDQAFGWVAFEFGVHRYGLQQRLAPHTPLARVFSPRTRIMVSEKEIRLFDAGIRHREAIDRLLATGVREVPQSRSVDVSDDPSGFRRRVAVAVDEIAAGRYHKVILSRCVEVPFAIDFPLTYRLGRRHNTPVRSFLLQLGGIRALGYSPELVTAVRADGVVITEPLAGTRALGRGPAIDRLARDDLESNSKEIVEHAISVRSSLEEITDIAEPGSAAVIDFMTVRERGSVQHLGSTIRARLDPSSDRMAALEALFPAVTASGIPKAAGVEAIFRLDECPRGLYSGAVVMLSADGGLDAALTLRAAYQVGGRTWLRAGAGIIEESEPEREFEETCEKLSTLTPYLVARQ
# PV pol inh: poliovirus RNA polymerase inhibition; P03300; poliovirus polymerase elongation, fluorescence polarization; hits give low values; % elongation, % (compound at 16.7 µg/mL); 150,000 compounds, 0.66% hits; AID 588519; in the data active means % elongation below about 90%; further: some results filed as inactive read as strong as hits
# Mtb MenB inh: blocks the Mycobacterium tuberculosis MenB enzyme | P9WNP5 | MenB enzyme assay, absorbance read-out; some hits fall short of the stated cut | inhibition, %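 (about 12 µg/mL by stock and volumes)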 | 100,000 compounds, 0.43% hits | AID 540299;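 active means mean of two replicates above 30%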;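 further: 0% = no compound and 100% = wells with inactive enzyme; the first replicate is given; strong numbers were not always called active; inactives centre near -10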
# Target sequence (P9WNP5 whole entry, looked up): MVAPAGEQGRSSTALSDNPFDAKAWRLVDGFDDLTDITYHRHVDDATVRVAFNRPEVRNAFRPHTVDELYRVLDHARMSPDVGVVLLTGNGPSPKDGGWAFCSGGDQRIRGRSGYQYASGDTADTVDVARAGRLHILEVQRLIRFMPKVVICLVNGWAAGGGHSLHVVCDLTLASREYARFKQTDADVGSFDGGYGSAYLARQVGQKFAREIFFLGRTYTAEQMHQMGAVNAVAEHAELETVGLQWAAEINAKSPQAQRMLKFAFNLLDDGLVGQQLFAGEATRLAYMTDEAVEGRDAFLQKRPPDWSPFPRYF
# PV pol inh intensity: further read-out of PV pol inh, marked with its call; % elongation; measured here: total intensity read-out; formula for this scale not given here;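 total fluorescence in place of polarization; lower means less elongation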
# * = called active by the depositor; i = inactive; · = not tested or not shown.
# Results follow in this order: Mtb MbtI inh | PV pol inh | PV pol inh intensity | Mtb MenB inh
- CCCN(C(=O)c1ccccc1)c1c(N)n(Cc2ccccc2)c(=O)[nH]c1=O
→ -3 | 103 | 108 | -23
- Cc1c(C#N)c(NC(=O)CSc2cc(C)c3ccccc3n2)n(Cc2ccco2)c1C
→ -13 | 109 | 119 | -10
- CNc1nc(N2CCCC2)ncc1F
→ -232 | 100 | 103 | 9
- COC(=O)c1cc2nc(-c3ccccc3)cc(C(F)(F)F)n2n1
→ 13 | 99 | 100 | 6
- CCC1C(=O)C(CC)C(c2ccccc2)NC1c1ccccc1 (stereo not drawn)
→ -16 | 97 | 95 | ·
- O=C(O)C1CC=CCC1C(=O)Nc1ccc(Cl)cc1 (stereo not drawn)
→ · | 101 | 103 | -3
- CC1CCN(CC(O)CN2c3ccccc3Sc3ccccc32)CC1 (stereo not drawn)
→ -1 | 98 | 101 | -18
- CC(=O)N1c2ccccc2C(CSc2nnc(-c3ccccc3)o2)=CC1(C)C
→ 21 | 102 | 98 | 7
- CCCCn1nc(C(=O)N(C)Cc2cc(Br)ccc2OC)ccc1=O
→ -12 | 102 | 109 | -27
- COc1ccc(CNC(=O)C2CCCCC2C(=O)N2CCc3ccccc32)cc1OC (stereo not drawn)
→ 3 | 103 | 96 | -35
- Cc1cc2c(cc3c(SCC(=O)Nc4ccc(Cl)cc4F)nnc(C)n32)o1
→ 5 | 101 | 101 | -19
- Cc1ccc(S(=O)(=O)N2CCC(C(N)=O)CC2)cc1C
→ 7 | 104 | 103 | -8
- O=C(N1CCCCC1)C1(S(=O)(=O)c2ccc(Cl)cc2)CC1
→ -1 | 100 | 107 | 4
- N[C@@H](CCC(=O)N[C@@H](CS)C(=O)NCC(=O)O)C(=O)O
→ -10 | 100 | 98 | -7
- FC(F)(F)c1nc(N2CCCC2)nc2c1CCCCC2
→ 42 | 99 | 104 | 0
- COc1ccc(S(=O)(=O)c2ccc(OC)cc2)cc1
→ 1 | 103 | 110 | -12
- N#Cc1ccsc1NC(=O)CCN1CCN(S(=O)(=O)c2ccc3c(c2)OCCCO3)CC1
→ 6 | 105 | 97 | -11
- O=C(CN1CCN(S(=O)(=O)c2ccc(Cl)cc2)CC1)N(C1CCCCC1)C1CCS(=O)(=O)C1 (stereo not drawn)
→ -4 | · | · | -27
- CCOC(=O)c1[nH]c(C)c(C(=O)N(Cc2ccccc2)C(C)C)c1C
→ -1 | 101 | 103 | 9
- Nc1cccc2cccc(C(=O)O)c12
→ -7 | 89* | 88* | ·
- CCc1nc(Cl)c(C#N)c2c1CCCC2
→ -2 | 102 | 105 | -14
- Cc1nc(Cc2n[nH]c(=S)o2)cs1
→ 18 | 98 | 100 | -6
- C=CCN1C(=O)CSC1=Nc1ccc(NC(C)=O)cc1
→ 13 | 104 | 109 | -5
- CCOC(=O)c1cnc2c(c(C3CC3)nn2C)c1N1CCOCC1
→ 2 | 101 | 102 | 7
- CCc1ccc(NC(=S)NNC(C)(C)C)cc1
→ 2 | 102 | 102 | -42
- CCSC1=N/C(=C\c2ccc(C(=O)O)cc2)C(=O)S1
→ 9 | 101 | 97 | -166
- O=c1c2ccccc2c(/C=N/NS(=O)(=O)c2ccccc2)c(O)n1-c1ccccn1
→ 1 | 132 | 196 | -148
- COC(=O)c1cc(=O)n2c(c1C(=O)c1ccc(Cl)cc1)SCC2
→ -9 | 108 | 109 | 2
- CN(C(=O)Nc1ccccc1)C1CCCCC1
→ -9 | 109 | 116 | 8
- O=c1c2ccccc2nc(SCc2ccccc2)n1CCCO
→ -4 | 111 | 126 | -19

# Overlap with the part before: 6 compounds; new compounds follow.
# Results follow in this order: Mtb MbtI inh | PV pol inh | PV pol inh intensity | Mtb MenB inh
- CCc1ccc(NC(=S)NNC(C)(C)C)cc1
→ 2 | 102 | 102 | -42
- CCSC1=N/C(=C\c2ccc(C(=O)O)cc2)C(=O)S1
→ 9 | 101 | 97 | -166
- O=c1c2ccccc2c(/C=N/NS(=O)(=O)c2ccccc2)c(O)n1-c1ccccn1
→ 1 | 132 | 196 | -148
- COC(=O)c1cc(=O)n2c(c1C(=O)c1ccc(Cl)cc1)SCC2
→ -9 | 108 | 109 | 2
- CN(C(=O)Nc1ccccc1)C1CCCCC1
→ -9 | 109 | 116 | 8
- O=c1c2ccccc2nc(SCc2ccccc2)n1CCCO
→ -4 | 111 | 126 | -19
- O=C(c1ccccc1)n1sc(=O)c2ccccc21
→ 90 | 101 | 104 | -57
- CCCc1cc(=O)n2nc(N3CCC(C(=O)NCC)CC3)sc2n1
→ -5 | 103 | 98 | -22
- Nc1nnnn1CC(=O)N(Cc1ccco1)C1(C(=O)Nc2ccccc2)CCCCC1
→ · | 101 | 106 | -2
- C1CNC(C23CC4CC(CC(C4)C2)C3)=N1
→ 0 | 102 | 100 | -1
- O=C(CCS(=O)(=O)Cc1ccccc1)NCc1ccc2c(c1)OCO2
→ 3 | 100 | 100 | 24
- C#CC(CC)(CC)NC(=O)c1ccc(Cl)cc1
→ -9 | 103 | 99 | -31
- CN(C)C(CNC(=O)c1n[nH]c(=O)c2ccccc12)c1ccccc1 (stereo not drawn)
→ 13 | 98 | 105 | -8
- CC(C)N(Cc1nc2ccccc2c(=O)[nH]1)C(=O)Cc1ccc(S(=O)(=O)N2CCOCC2)s1
→ 6 | 103 | 101 | 10
- NC(=O)c1cc(Cl)nc2ccccc12
→ -14 | 103 | 104 | -14
- O=C(Nc1ccc(S(=O)(=O)NCCc2ccccc2)cc1)C1c2ccccc2Oc2ccccc21
→ 1 | 101 | 105 | -44
- COc1cc(CC(=O)OCC(=O)NC2CCCCC2C)cc(OC)c1OC (stereo not drawn)
→ 17 | 100 | 108 | -11
- Cc1cc(=O)oc2cc(OC(=O)c3cc(S(=O)(=O)N(C)C)ccc3N3CCCC3)ccc12
→ -14 | 107 | 108 | -4
- CN(CCO)c1ncnc2c1sc1nc3c(cc12)COC(C)(C)C3
→ 112 | 104 | 101 | -31
- COc1ccc2nc(NC(=O)C3CCCN(S(=O)(=O)c4cccc5nonc45)C3)sc2c1 (stereo not drawn)
→ 2 | 101 | 105 | -1
- Cc1cccc(CCNC(=O)c2nn(C)c3c2COc2ccccc2-3)c1
→ 3 | 106 | 98 | -51
- Cc1ncn2cc(-c3ccc(Cl)cc3Cl)[nH]c(=O)c12
→ -7 | 106 | 116 | 2
- O=C(O)C1Cc2ccccc2CN1S(=O)(=O)c1ccccc1 (stereo not drawn)
→ -4 | · | · | -16
- O=C1c2ccccc2S(=O)(=O)N1CCSc1nncn1-c1ccccc1
→ -9 | 100 | 96 | -67
- CCC(Sc1nncn2c1cc1sccc12)C(=O)N1CCOCC1 (stereo not drawn)
→ -1 | 102 | 102 | 8
- CCN1C(=O)C(C2SC(=S)N(CC)C2=O)SC1=S (stereo not drawn)
→ 3 | 100 | 102 | -22

# 4 structures out of the list, sorted by heavy-atom count, lowest first:
# Results follow in this order: Mtb MbtI inh | PV pol inh | PV pol inh intensity | Mtb MenB inh
- CCN1C(=O)C(C2SC(=S)N(CC)C2=O)SC1=S (stereo not drawn)
→ 3 | 100 | 102 | -22
- O=C(O)C1Cc2ccccc2CN1S(=O)(=O)c1ccccc1 (stereo not drawn)
→ -4 | · | · | -16
- CN(CCO)c1ncnc2c1sc1nc3c(cc12)COC(C)(C)C3
→ 112 | 104 | 101 | -31
- Cc1cccc(CCNC(=O)c2nn(C)c3c2COc2ccccc2-3)c1
→ 3 | 106 | 98 | -51

# Later entries.
# Results follow in this order: Mtb MbtI inh | PV pol inh | PV pol inh intensity | Mtb MenB inh
- N#Cc1c(-n2ncnc2-c2ccc(Cl)cc2)sc2c1CCCCC2
→ -3 | 100 | 104 | 7
- O=C(CN1C(=O)c2cccnc2Oc2ccccc21)NCc1ccccc1
→ -5 | 102 | 105 | -66
- COc1ccc(NC(C)=O)cc1C
→ 7 | 98 | 102 | -5
- Cc1ccccc1NS(=O)(=O)c1ccc(C2CNC(=O)C2)cc1 (stereo not drawn)
→ -6 | 100 | 106 | -17
- COC(=O)c1cc(C(C)(C)C)[nH]n1
→ -2 | 104 | 108 | -6
- COC(=O)c1ccc(OCC(=O)c2cc(C)n(-c3cc(C)on3)c2C)cc1
→ -8 | 113 | 120 | -35
- CCn1c(=O)c(C(=O)CNc2ccc(S(C)(=O)=O)cc2)c(N)n(Cc2ccccc2)c1=O
→ 11 | 102 | 100 | 12
- Cc1ccc(NC(=O)C2CCN(S(=O)(=O)c3cccs3)CC2)cc1C
→ -30 | 108 | 109 | 6
- Cc1cc(=O)[nH]c2c(C)cc(S(=O)(=O)N3CCOCC3)cc12
→ -6 | · | · | -15
- O=C(/C=C/c1cccc2ccccc12)Nc1nccs1
→ · | 101 | 108 | -27
- NC(N)=NC(N)=NCCc1ccccc1
→ 14 | 98 | 100 | 6
- COCCn1c(C)cc(C(=O)COC(=O)c2cncc(Br)c2)c1C
→ 3 | 100 | 106 | 2
- CCOC(=O)c1c(C)[nH]c2c1cc(O)c1ccccc12
→ 14 | 98 | 101 | 3
- Cc1cccn2c(=O)c3cc(C(=O)N4c5ccccc5CC4C)n(C)c3nc12 (stereo not drawn)
→ -4 | 100 | 109 | 5
- O=C1c2ccccc2C(=O)N1OCCOCCON1C(=O)c2ccccc2C1=O
→ -10 | 102 | 99 | -15
- Cc1noc(/C=C/c2ccco2)c1S(=O)(=O)N1CCC(C(=O)N2c3ccccc3CC2C)CC1 (stereo not drawn)
→ 8 | 105 | 113 | -24
- O=C(NCC1CCCN1S(=O)(=O)c1ccccc1)c1ccccc1 (stereo not drawn)
→ -11 | 105 | 105 | -29
- Cc1cc(C(=O)COC(=O)c2ccccc2)c(C)n1-c1nccs1
→ -6 | 103 | 107 | -11
- O=C(Nc1ccc2snnc2c1)NC1CCCC1
→ 41 | 103 | 106 | -3
- COc1cccc(C2C3=C(CC(C)(C)CC3=O)Nc3cc4c(cc32)OCO4)c1 (stereo not drawn)
→ 117 | 102 | 100 | -9
- COc1ccc(-c2csc(=Nc3ccccc3)n2C)cc1
→ -2 | · | · | -3
- CC(C)(C)NC(=O)Nc1cccc2ccccc12
→ i | 103 | 103 | -16
- Cc1cc(C)c(C#N)c(SCC(=O)N2CCCCC2)n1
→ · | 101 | 106 | -4
- O=P1(Nc2ccc(Cl)cc2)CC=CC1
→ 2 | 108 | 107 | -26
- COC(=O)c1ccc(NC(=O)CSc2nnc(-c3ccccc3Cl)n2N)cc1
→ 52 | 100 | 99 | -16
- COc1ccc(S(=O)(=O)N(C)c2ccnc(C(=O)N3CCCCC3)c2)cc1
→ -27 | 103 | 104 | -7
- O=C(NCCN1CCCCC1)c1ccc(-c2ccccc2)cc1
→ 64 | 101 | 103 | 2
- CC(NC1CC1)C(=O)N1CCN(C(=O)c2ccco2)CC1 (stereo not drawn)
→ -6 | 96 | 103 | 7
- CN(C)CCC(=O)N1c2ccccc2Sc2ccc(C(F)(F)F)cc21
→ -6 | 104 | 108 | -25
- O=C(CNc1cccc(C(F)(F)F)c1)N/N=C1\CC2CC=CC12 (stereo not drawn)
→ -7 | 106 | 112 | -7
- CCn1cc(SCC(=O)N2N=C(c3cccs3)CC2c2ccc(C)cc2)c2ccccc21 (stereo not drawn)
→ 8 | 105 | 107 | -34
- O=C(O)/C(=C\c1ccccc1)NC(=O)c1ccccc1
→ · | 101 | 103 | -1
- Cc1ccc2[nH]c(C)c(CN3CC(C)OC(C)C3)c(=O)c2c1 (stereo not drawn)
→ 2 | 104 | 102 | -27
- CC1CCN(S(=O)(=O)c2ccc3c(c2)oc(=O)n3C)CC1
→ 2 | 101 | 104 | -19
- CCN(C(=O)CSC1=N/C(=C\c2ccco2)C(=O)N1c1ccc(OC(F)F)cc1)C1CCS(=O)(=O)C1 (stereo not drawn)
→ -20 | 106 | 109 | -43
- Cc1ccccc1CS(=O)(=O)Cc1ccc(C(=O)N2CCC3(CC2)OCCO3)o1
→ 6 | 102 | 101 | -5
- CCOC(=O)c1sc(N)c(C#N)c1COC(=O)c1cccc(OCc2c(C)noc2C)c1
→ 18 | 45 | 244 | -17
- NS(=O)(=O)c1ccc(F)cc1F
→ -11 | 100 | 107 | ·
- Cc1ccc(SCc2cc(=O)n3c(nc4ccccc43)[nH]2)cc1
→ -44 | 101 | 100 | -29
- N#CCOc1ccc2oc(-c3ccccc3)cc(=O)c2c1
→ -9 | 101 | 103 | -42
- CNC(=O)Oc1ccc(-c2nc(CSc3ccc(Cl)cc3)cs2)cc1
→ 39 | 105 | 107 | -10
- Cc1nc2ccc(C(=O)OCC(=O)Nc3cccnc3Cl)cc2nc1C
→ -1 | 105 | 107 | -36
- Cc1c(C(=O)NCCCN2CCOCC2)oc2ccc3c(c12)C(=O)CC(C)(c1ccc(Cl)cc1)O3 (stereo not drawn)
→ 10 | 105 | 102 | -18
- CC(C)Cn1cc(NC(=O)N2CCCCCC2)c2ccccc2c1=O
→ 0 | 101 | 103 | -19
- COc1ccccc1-c1noc(CCC(=O)Nc2ccccc2C(F)(F)F)n1
→ 31 | 99 | 101 | -1
- CCCN(CCC)C(=O)c1ccc(Cl)c(Cl)c1
→ -4 | 105 | 102 | -25
- CCCCn1c(/N=C/c2c[nH]c3ccccc23)nc2ccccc21
→ -7 | 101 | 105 | -103
- CSc1ccc(/C=C2\SC(N)=NC2=O)cc1
→ 5 | 100 | 107 | -12
- CC(=O)Nc1nc(COC(=O)CNC(N)=O)cs1
→ -4 | 104 | 107 | 4
